Bioassay records (PubChem BioAssay)
miR-21 reporter: raises the signal of a miR-21 reporter. HeLa miR-21 FLuc reporter, luciferase, 48 h. Potency, µM (doses to about 38.3 µM), without a hit: at the highest dose reporter change, positive = more light. 340,000 tested, under 10 active. AID 2288; active = well fitted rising curve with a large enough effect; inconclusive = small, poorly fitted or top-dose-only effect; inactive = no such curve, though single readings can be large or run the other way;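 also: % of control where 0% means no effect; miR-21 action dims this reporter so a rising signal means less miR-21 action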
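Using DMEM plus 10% FBS, HeLa miR-21-FLuc cells are incubated with test compounds (final up to about 40uM) for 48 hours; firefly luciferase signal is then imaged following reagent-mediated lysis.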
* = called active by the depositor; ? = inconclusive.

The first 5 compounds, ahead of the listing:
miR-21 reporter	molecule
-1%	COc1cccc(CNC(=O)c2cnc3sc(N4CCCC4)nn3c2=O)c1OC
1%	COc1cccc2c1Oc1nc(-c3ccccc3)nc(SCC(=O)N3CCCCC3)c1C2
-21%	CCOc1ccccc1NC(=O)N(C)CCc1c(C)nn(CC)c1C
?	Cc1cccc(C(=O)N(Cc2ccco2)Cc2ccccc2F)c1
-3%	Cc1ccc(N2CC(c3nnc(Cc4ccc(F)cc4Cl)o3)CC2=O)cc1 (stereo not drawn)

All compounds of this part (from the top)
miR-21 reporter	molecule
-1%	COc1cccc(CNC(=O)c2cnc3sc(N4CCCC4)nn3c2=O)c1OC
1%	COc1cccc2c1Oc1nc(-c3ccccc3)nc(SCC(=O)N3CCCCC3)c1C2
-21%	CCOc1ccccc1NC(=O)N(C)CCc1c(C)nn(CC)c1C
?	Cc1cccc(C(=O)N(Cc2ccco2)Cc2ccccc2F)c1
-3%	Cc1ccc(N2CC(c3nnc(Cc4ccc(F)cc4Cl)o3)CC2=O)cc1 (stereo not drawn)
1%	Cc1cccc(Cn2cc(C(=O)Nc3ccc(S(N)(=O)=O)cc3)ccc2=O)c1
6%	COc1ccc(Nc2nnc(-c3ccc(C)c(S(N)(=O)=O)c3)c3ccccc23)cc1
-2%	CCOc1ccccc1NC(=O)C(CC(C)C)NS(=O)(=O)c1ccc2c(c1)oc(=O)n2C (stereo not drawn)
-1%	Cc1cccc(N2CCN(C(=O)c3oc(=O)c4ccccc4c3-c3ccccc3)CC2C)c1 (stereo not drawn)
0%	COc1ccccc1NC(=O)c1c(C)cc(C)nc1SCC(=O)c1ccc(Cl)cc1
1%	COc1ccc(-c2oc3ncn4nc(-c5ccccc5Cl)nc4c3c2-c2ccc(OC)cc2)cc1
0%	Cc1cccc(-c2nc3c4ccccc4nc(N4CCN(c5ccc(F)cc5)CC4)n3n2)c1
-1%	COc1ccccc1N1CCN(S(=O)(=O)c2c(C)sc3ncn(CC(=O)Nc4ccc(C(F)(F)F)cc4)c(=O)c23)CC1
-6%	COc1ccc(N2CCN(CCCNC(=O)c3ccc4nc(CCc5ccccc5)oc4c3)CC2)cc1
-1%	Cc1cccc(N2CCN(C(=O)CN3C(=O)COc4ccc(S(=O)(=O)N5CCCC5)cc43)CC2)c1C
-17%	Cc1ccc2c(c1)N(C(=O)N1CCC(C(=O)NCc3ccccc3F)CC1)CC(C)O2 (stereo not drawn)

Sorted by value in miR-21 reporter (largest number first): 5 of the compounds above.
miR-21 reporter	molecule
1%	COc1ccc(-c2oc3ncn4nc(-c5ccccc5Cl)nc4c3c2-c2ccc(OC)cc2)cc1
0%	COc1ccccc1NC(=O)c1c(C)cc(C)nc1SCC(=O)c1ccc(Cl)cc1
-1%	Cc1cccc(N2CCN(C(=O)c3oc(=O)c4ccccc4c3-c3ccccc3)CC2C)c1 (stereo not drawn)
-6%	COc1ccc(N2CCN(CCCNC(=O)c3ccc4nc(CCc5ccccc5)oc4c3)CC2)cc1
-17%	Cc1ccc2c(c1)N(C(=O)N1CCC(C(=O)NCc3ccccc3F)CC1)CC(C)O2 (stereo not drawn)

Continuation.
miR-21 reporter	molecule
-18%	CCc1ccccc1NC(=O)C1COc2ccccc2C1 (stereo not drawn)
2%	CCOC(=O)c1noc2nc(C)n(CC(=O)Nc3cc(Cl)ccc3OC)c(=O)c12
1%	O=C(CCc1nc2cccnc2n1-c1ccccc1)Nc1ccc(Cl)c(Cl)c1
27%	CCn1cc(C(=O)N2CCN(c3cc(Cl)ccc3C)CC2)c(=O)c2cc(S(=O)(=O)N3CCCC3)ccc21
0%	Cc1ccc(NS(=O)(=O)c2c(C)nc3sccn3c2=O)c(Cl)c1
-7%	Cc1ccc(CCNc2nc3c(S(=O)(=O)c4ccccc4)nnn3c3ccsc23)cc1
1%	O=C(NC1CC(=O)N(c2ccc(Cl)cc2)C1)c1ccc2c(c1)OCO2 (stereo not drawn)
-10%	CCOc1ccc(OCC)c(Nc2nc3ccc(Cl)cc3n3cnnc23)c1

Ordered by length of the SMILES (ascending): some entries from above
miR-21 reporter	molecule
-18%	CCc1ccccc1NC(=O)C1COc2ccccc2C1 (stereo not drawn)
-10%	CCOc1ccc(OCC)c(Nc2nc3ccc(Cl)cc3n3cnnc23)c1
0%	Cc1ccc(NS(=O)(=O)c2c(C)nc3sccn3c2=O)c(Cl)c1
1%	O=C(CCc1nc2cccnc2n1-c1ccccc1)Nc1ccc(Cl)c(Cl)c1
2%	CCOC(=O)c1noc2nc(C)n(CC(=O)Nc3cc(Cl)ccc3OC)c(=O)c12

Other compounds follow:
miR-21 reporter	molecule
4%	CCOC(=O)c1c(C)[nH]c(C)c1S(=O)(=O)N1CCC(C(=O)Nc2cc(Cl)ccc2OC)CC1
?	CCC(=O)C1=C(c2ccc(Cl)cc2)N(C(=O)CC)n2c(C)nnc2S1
-31%	COc1ccc(-c2nc3ccccc3s2)cc1NC(=O)COc1cccc(C)c1
-2%	Cc1cccc(N2CCN(C(=O)c3cn(CC(C)C)c(=O)c4c3c3ccccc3n4C)CC2)c1C
0%	COCCn1ccc2c(OCC(=O)Nc3cccc(OC)c3)cccc2c1=O
14%	CCc1ccc(C(=O)c2cn(CC(=O)Nc3cc(OC)ccc3OC)c3nc(C)ccc3c2=O)cc1
-1%	Cc1nn2c(C)c(C(=O)N3CCN(c4ccccc4F)CC3)cnc2c1-c1ccc(F)cc1
-9%	COc1ccc(-c2nc(C)c(CCNS(=O)(=O)c3cc(Cl)ccc3Cl)s2)cc1
-27%	Cc1cccc2nc(-c3ccc(N(C)C)cc3)c(Nc3ccc4c(c3)OCO4)n12
-6%	O=c1c2sc3ccccc3c2n(Cc2cccc(C(F)(F)F)c2)c(=O)n1-c1ccccc1
-58%	COc1cc2c(cc1NC(=O)C(C)Oc1ccccc1)oc1ccccc12 (stereo not drawn)
-4%	Cc1ccc(NC(=O)Cn2c(=O)n(CC3CCCO3)c(=O)c3ccccc32)cc1 (stereo not drawn)
-1%	Cc1cc(C)c2c(n1)nn1c(C)c(CCC(=O)Nc3cccc(C)c3C)c(C)nc21
-12%	O=C(CSc1nnc(-c2ccccc2)o1)N1CCCc2ccccc21
-5%	Cc1ccc(CCNC(=O)CN2C(=O)COc3ccc(S(=O)(=O)N4CCCC4)cc32)cc1
-2%	CCOC(=O)c1cnc2c(ccc3ccccc32)c1Nc1ccccc1O
-22%	COc1cccc(OCc2nc3ccccc3n2CCOc2ccccc2C)c1
-2%	N#Cc1ccccc1NC(=O)Cn1cnc2onc(-c3cccc(F)c3)c2c1=O
-6%	O=C(NC1CCCCCC1)c1ccc2c(c1)sc1nc(-c3ccc(F)cc3)cn12
?	COc1cc(C(=O)Nc2nonc2-c2ccc(Cl)cc2)cc(OC)c1OC
13%	O=C(NCc1ccc(Cl)cc1)C(=O)NCC(c1ccco1)S(=O)(=O)c1cccs1 (stereo not drawn)
3%	Cc1cccc(N(C)C(=O)CCS(=O)(=O)c2ccc3c(c2)oc(=O)n3C)c1
-25%	O=C(c1cc2ccc3cccnc3c2[nH]1)N1CCN(c2ccccc2)CC1
1%	Cc1ccccc1Nc1c(-c2ccc(Br)o2)nc2ccc(Cl)cn12

Single entries from the list.
Cc1ccccc1Nc1c(-c2ccc(Br)o2)nc2ccc(Cl)cn12 in miR-21 reporter reads 1%
Cc1cccc2nc(-c3ccc(N(C)C)cc3)c(Nc3ccc4c(c3)OCO4)n12 in miR-21 reporter reads -27%
Cc1cccc(N(C)C(=O)CCS(=O)(=O)c2ccc3c(c2)oc(=O)n3C)c1 in miR-21 reporter reads 3%

The listing continues:
miR-21 reporter	molecule
-8%	Cc1csc2nc(COc3ccc(NC(=O)COc4ccccc4F)cc3)cc(=O)n12
0%	CCOC(=O)c1ccc(NC(=O)CCCn2c(=O)c3cccn3c3ccccc32)cc1
9%	Cc1ccc(S(=O)(=O)c2nc(S(C)(=O)=O)sc2N(C)Cc2ccccc2)cc1
9%	COc1ccc(S(=O)(=O)NCC(c2cccs2)S(=O)(=O)c2ccc(C)cc2)cc1F (stereo not drawn)
-6%	Nc1c(-c2nc(-c3ccc4c(c3)OCO4)cs2)c2ccccn2c1C(=O)c1ccc(Cl)cc1
0%	COCCCNC(=O)C(=O)Nc1c2c(nn1-c1cccc(Cl)c1)CSC2
3%	COC(=O)c1cc(NC(=O)CCc2c(C)nc3c4c(C)cc(C)nc4nn3c2C)cc(C(=O)OC)c1
0%	COc1ccc(-c2cc3ncc(C(=O)c4cc([N+](=O)[O-])ccc4O)cn3n2)cc1
1%	COc1cccc(-n2cc(C(=O)Oc3cccc(C(F)(F)F)c3)c3ccccc3c2=O)c1
6%	COC(=O)c1ccc(OCC2c3cc(OC)c(OC)cc3CCN2C(=O)c2ccccc2F)cc1 (stereo not drawn)
-4%	COc1ccccc1-c1noc(-c2ccc(N(C)Cc3ccccc3)c([N+](=O)[O-])c2)n1
1%	O=C(Cn1ncc2c3ccccc3n(Cc3ccc(Cl)cc3)c2c1=O)NCc1cccs1
20%	COc1cc(C(=O)Nc2ccc3c(c2)N(C2CCCC2)C(=O)c2ccccc2S3)cc(OC)c1OC
11%	COc1ccc(NC(=O)Cn2c(=O)n(-c3ccc(C)cc3)c(=O)c3c2cnn3C)cc1
29%	CC(=O)Nc1cc(C(=O)Nc2ccc3c(c2)N(C)C(=O)c2ccccc2S3)ccc1C
-1%	CCCN1CCN(c2ncnc3sc(C(=O)Nc4ccc(N(CC)CC)cc4C)c(C)c23)CC1
1%	N#Cc1ccc(NC(=O)COCc2cc(-c3ccc(F)cc3)on2)cc1
-2%	CCN(CC)S(=O)(=O)c1ccc2c(c1)N(CC(=O)N1CCN(c3ccc(OC)cc3)CC1)C(=O)CO2
12%	CCOC(=O)c1cc(S(=O)(=O)Nc2cc(OC)ccc2OC)[nH]n1
-1%	O=C(CSc1c2c(nc3ccc(Cl)cc13)CCCC2)N1CCN(c2ccc(Cl)cc2)CC1
0%	Cc1ccc(-n2nnnc2SCC(=O)NCCc2ccccc2)cc1C
-5%	COc1cc(C(=O)Nc2ccc(-c3nc4cc(C)c(C)cc4o3)cc2)cc(OC)c1OC
-9%	COc1cccc(C(=O)NCc2cn3cccc(C)c3n2)c1
-1%	CCCCCCC(=O)Nc1ccc2nc3c(=O)n(C)c(=O)n(C)c3nc2c1C
-1%	CCOC(=O)c1c(NC(=O)CSc2nc(-c3ccc(OC)cc3)cc(C(F)(F)F)n2)sc(C)c1C
2%	Cc1cc(C)c(Cn2c3ccccc3c3cnn(CC(=O)NC4CCC(C)CC4)c(=O)c32)c(C)c1 (stereo not drawn)
-17%	CCCc1nn2c(=O)cc(COC(=O)c3ccccc3NC(=O)C3CCCCC3)nc2s1
-8%	COc1cc(C)ccc1OCCSc1nc2ccc(NC(=O)c3ccc4c(c3)OCO4)cc2s1
0%	CC1CCN(C(=O)Cn2cc(SCc3cccc(F)c3)c3ccccc32)CC1
-22%	CCOc1ccc(OCC)c(NC(=O)c2cc3ccccn3n2)c1
2%	Cc1ccc(CCNC(=O)CCS(=O)(=O)c2cc3c(cc2Cl)NC(=O)CO3)cc1
27%	O=C(NCc1cccnc1)C1CCN(Cc2cc3ccccc3n2Cc2ccccc2)CC1
-2%	Cc1cccc(N(CC(=O)Nc2cccc(Cl)c2C)S(C)(=O)=O)c1C
-1%	COc1ccc(N2CCN(c3ncccc3-c3nc(-c4ccccc4C)no3)CC2)cc1
?	CCOC(=O)c1cc(-c2ccc(C)cc2)n(CCC(=O)Nc2ccc(C(C)C)cc2)c1C
-3%	CCSc1nc2c([nH]c3ccccc32)c(=O)n1-c1ccc(F)cc1
?	COc1ccc(N(Cc2cccs2)C(=O)c2ccc(OCC(C)C)cc2)cc1
-1%	O=C(CSc1nc(-c2ccco2)nc2cc(=O)[nH]n12)Nc1ccccc1Cl
-8%	CCC(=O)N1CCc2cc(S(=O)(=O)NC(Cc3ccccc3)C(=O)NCc3ccc(C)cc3)ccc21 (stereo not drawn)
-4%	CCN(CC)C(=O)Cn1c(=O)n(CC2CCC(C(=O)NC)CC2)c(=O)c2sccc21 (stereo not drawn)
2%	CCc1ccc(NC(=O)c2cc(S(=O)(=O)N3CCCC3)ccc2F)cc1
4%	Cc1c(Cl)cccc1NC(=O)C1CCN(c2nc3ccccc3[nH]2)CC1
0%	Cc1cc(Nc2cccc(Br)c2)n2c(nc3ccccc32)c1C#N
-1%	Cc1ccc(C(=O)c2cn(CC(=O)Nc3ccc(C)cc3Cl)c3nc(C)ccc3c2=O)cc1
4%	O=C(NCCc1ccc(Cl)cc1)C1(c2cccs2)CCOCC1
-35%	O=C(CSc1nccn1C1CCCC1)Nc1cccc(F)c1
-10%	COc1cc(OC)cc(C(=O)Nc2cc3c(cc2N2CCOCC2)n(C)c(=O)n3C)c1

Some of the compounds tested. The share of hits here may be higher or lower than overall.
